Assay outcomes from PubChem BioAssay.
Calb FLC: C. albicans growth inhibition with fluconazole, primary screen, CaCi-2 strain, Alamar Blue fluorescence; C. albicans CaCi-2 (fluconazole-resistant clinical isolate) + fluconazole, 48 h; growth inhibition, % (no concentration beside the values); 300,000 tested, 0.57% active;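 active = most replicates above 75%; inconclusive = exactly half above 75%; inactive = most below 75%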;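 also: all wells also contain fluconazole at 8 µg/ml as a sub-toxic cotreatment; 0% = median of DMSO wells and 100% = median of geldanamycin control wells; wells of about 8 µL received 7.5 nL stock; the first replicate is given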
RanGTP-Impb inh: inhibitors of RanGTP-importin-beta interaction, primary screen, biochemical, FRET, CFP-Ran, YFP-importin-beta, homogeneous. Ran GTPase (GTP-bound) - importin-beta complex. cell-free CFP-Ran/YFP-importin-beta FRET ratio. inhibition, % (test concentration not listed). 300,000 tested, 1.1% active;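 active = most replicates above 15%; inconclusive = exactly half above 15%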;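 also: 0% = DMSO wells and 100% = Ran loaded with GDP instead of GTP; wells of about 40 µL received 100 nL stock; the first replicate is given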
Vif TR-FRET: inhibitors of Vif binding to APOBEC3G peptide, primary screen, biochemical, TR-FRET, GST-Vif 1-94, biotin-A3G peptide, dose response retest (AID 1117319); Virion infectivity factor (Human immunodeficiency virus type 1 group M subtype B (isolate …; TR-FRET GST-Vif / biotin-A3G peptide binding; higher % means a stronger effect; test concentration not given here; strong numbers were not always called active; inhibition, %, or IC50 in µM where a hit was titrated; 260,000 tested, 0.57% active;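 active = above the screen mean plus three standard deviations and confirmed in dose response; inconclusive = results disagree or hit not tested in dose response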;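 also: Vif residues 1-94 fused to GST binding biotinylated APOBEC3G peptide 110-148; 0% = full assay without inhibitor and 100% = GST in place of GST-Vif; retest series ran down from 100 µM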
Beta cell apopt: inhibitors of cytokine-induced beta cell apoptosis, primary screen, luminescence; protection from apoptosis, % (concentration not given with the values); INS-1E cytokine-induced death, ATP luminescence, 48 h; percent of positive-control rescue, neutral wells zero; 300,000 tested, 0.8% active;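 active = all replicates at 75% or more, or half of them and the mean; inconclusive = half reach 75% but not the mean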;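 also: 0% = cytokine-treated negative control wells and 100% = positive control rescue; higher means more ATP so stronger rescue from cytokine killing; wells of about 40 µL received 100 nL stock; the first replicate is given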
Bfl-1 A1 inh: caspase 3/7 activation in MEF A1-2A-BIM cells, primary screen, A1 inhibitor project, cell-based, luminescence, HTS; Caspase-Glo 3/7 luminescence, 3 h; percent of clofoctol response, vehicle zero; caspase activation, % (test concentration not listed); 330,000 tested, 0.066% active;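 active = over half of replicate activation scores above 10%, or exactly half above 10 with the replicate mean above 10; inconclusive = replicate mean below 10 yet half the replicates above 10; inactive = over half of replicates below 10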;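 also: wells of about 30 µL received 50 nL stock; many hits fall short of the cut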
T cruzi inh: inhibitors of intracellular T. cruzi growth, primary screen, luminescence, NIH3T3 host cells. T. cruzi beta-gal in NIH3T3, 90 h. inhibition, % (test concentration not listed). 300,000 tested, 1.4% active;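 active = mean inhibition across valid replicates above about 55%, limit read from the data; inconclusive = mean below that limit but half or more replicates reach it; inactive = mean below it, under half of replicates reach it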;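 also: signal also drops with host cell toxicity which is not excluded here; 0% = plate median of DMSO wells and 100% = zero luminescence signal; higher percent means less beta-gal luminescence so fewer parasites; stock transfer was 50 nL into about 50 µL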
LANA-H2A inh: blockers of LANA interaction with H2A/H2B – biochemical, FP readout, HTS, primary screen | inhibition, % (test concentration not listed) | 320,000 tested, 0.6% active | cell-free LANA-H2A/H2B peptide, fluorescence polarization | Protein LANA1 (Human herpesvirus 8 type P (isolate GK18)), Q9QR71; in the data active = inhibition mostly above about 10%, no sharp cut-off; inactive = mostly below about 6.7%;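 also: stock transfer was 7.5 nL into about 10 µL; 0% = median of vehicle wells and 100% = median of positive control wells; one replicate is shown; the record names a cut of 25% in any replicate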
MLL AF4-AF9 inh: inhibitors of AF4 peptide binding to AF9, primary screen, biochemical, AlphaScreen, biotin-AF4 peptide, FLAG-AF9, single point. inhibition, % at 10 µM. 350,000 tested, 0.47% active;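 active = every replicate reaching a set inhibition limit, whatever the replicate mean, cut at about 25% in these data; inconclusive = mean inhibition reaches that limit but some replicates miss it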;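 also: 0% = plate neutral control median and 100% = total signal loss; the record names both 10 and 1 µM as test concentration; the first replicate is given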
Target sequence (P42568 whole entry, looked up): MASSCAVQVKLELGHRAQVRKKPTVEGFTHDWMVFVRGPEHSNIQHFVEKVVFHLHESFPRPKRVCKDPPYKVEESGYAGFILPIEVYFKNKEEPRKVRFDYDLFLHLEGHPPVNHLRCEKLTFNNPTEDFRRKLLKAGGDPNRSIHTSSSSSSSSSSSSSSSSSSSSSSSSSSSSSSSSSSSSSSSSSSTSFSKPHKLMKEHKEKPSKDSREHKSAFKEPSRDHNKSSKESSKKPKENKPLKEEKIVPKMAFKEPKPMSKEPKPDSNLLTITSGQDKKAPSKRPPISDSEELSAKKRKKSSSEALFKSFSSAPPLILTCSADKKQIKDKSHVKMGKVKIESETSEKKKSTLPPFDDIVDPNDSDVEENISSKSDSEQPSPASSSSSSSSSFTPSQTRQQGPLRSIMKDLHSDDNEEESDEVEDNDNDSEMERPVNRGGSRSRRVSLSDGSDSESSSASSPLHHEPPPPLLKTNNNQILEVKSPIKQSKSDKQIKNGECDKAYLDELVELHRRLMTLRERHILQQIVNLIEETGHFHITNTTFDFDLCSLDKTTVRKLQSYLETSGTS
Starred values were filed as active, the others as inactive; i = inactive; ? = inconclusive; nt = not tested or not shown; & = joins results of further samples. Not a hit list (roughly 4.3% active in at least one column).

SMILES	Calb FLC	RanGTP-Impb inh	Vif TR-FRET	Beta cell apopt	Bfl-1 A1 inh	T cruzi inh	LANA-H2A inh	MLL AF4-AF9 inh
COCCCNc1c2c3c(cccc3[nH]c1=O)C(=O)c1ccccc1-2	nt	nt	3%	1	-0.4	nt	123*	-29
CC1(C)CC(CC(=O)O)(c2ccc(Cl)cc2)CCO1 (stereo not drawn)	-9	0.4	31%	-4	0.1	-7	-1.4	-6.4
CC(C)=CCC/C(C)=C/CC/C(C)=C/CC/C(C)=C/CC1=C(C)C(=O)c2ccccc2C1=O	nt	7.3	?	nt	nt	0	-26	1.9
COc1cccc(CN2CCCC(CNC(=O)c3ccc(F)cc3)C2)c1OC (stereo not drawn)	0	6.1	-4%	-3	1.5	68*	-1.8	-2.7
COc1ccc(NC(=O)c2ccc(NC(=O)CSc3nccc(=O)[nH]3)cc2)cc1	5	-2.6	10%	1	0.8	-6	0.6	-2.2
Fc1ccc(NC(=S)Nc2cccnc2)c(F)c1F	4	4.0	?	-2	1.3	-15	nt	-0.1
Cn1c(C(=O)N2CCOCC2)cnc1Sc1ncc(C(F)(F)F)cc1Cl	23	1.6	0%	4	-0.3	-26	-2.4	nt
O=C(NCc1cccc(Cl)c1)NC(=O)c1csc([N+](=O)[O-])c1	3	4.4	0%	-2	0.3	12	4.0	nt
Cn1c(CN2CCN(S(C)(=O)=O)CC2)nc2cc([N+](=O)[O-])ccc21	6	-1.2	-4%	-3	1.1	6	2.0	1.3
Cc1noc(NS(=O)(=O)c2ccc(N/C=C\C(=O)c3ccncc3)cc2)c1C	0	-3.2	1%	-2	-0.2	-11	-0.9	nt
Cc1ccc(-n2ncc3c(=O)n(CC(=O)N4CCN(c5ccccc5F)CC4)cnc32)cc1C	12	-0.6	11%	4	0.2	-7	1.1	nt
CN(C)S(=O)(=O)c1ccc(Cl)c(NC(=O)CSc2nc3ccccc3c(=O)n2CCCN2CCOCC2)c1	8	-0.4	nt	-11	1.3	17	1.1	nt
Cn1c(NCCCN2CCOCC2)nc2c1c(=O)n(Cc1ccc(Cl)cc1)c(=O)n2C	-3	?	0%	2	0.0	-3	-0.9	nt
COC(=O)c1[nH]c(C)c(/C(O)=C2\C(=O)C(=O)N(CCN3CCOCC3)C2c2ccco2)c1C (stereo not drawn)	-10	0.1	11%	-4	-0.1	4	-12	0.0
CCOc1ccc(CNC(=O)CCc2cn(C)c3ccccc23)cc1OC	-8	3.2	-1%	-4	0.3	-3	1.5	0.8
CC(C)(C)C(=O)Nc1ccc(-c2cc3cc(Cl)ccc3o2)cc1	-1	0.3	-14%	0	0.1	0	1.8	-0.8
COc1ccc(CCNC(=O)C2CCN(C(=O)c3ccc(Br)cc3)CC2)cc1	-2	7.8	-8%	-1	-1.2	7	-0.8	-4.8
COc1ccc(-n2ccnc2SCC(=O)NCc2ccccc2)c(OC)c1	16	-1.8	10%	-1	0.3	-5	i	1.9
O=C1OC(N2C(=O)CC[C@H]2C(=O)Nc2cccc(F)c2)c2ccccc21 (stereo partly drawn)	-2	-1.3	nt	1	-0.3	-8	1.1	-4.4
CS(=O)(=O)c1ccc2nc(NC3(C(F)(F)F)N=C4SCCN4C3=O)sc2c1 (stereo not drawn)	-14	0.4	-2%	2	0.1	7	5.3	nt
COc1ccc(C(=O)N2CCN(S(=O)(=O)c3ccc(C)cc3C)CC2)cc1OC	-1	-2.0	-4%	-8	0.1	12	4.7	-4.1
CCOc1ncccc1C(=O)OCC(=O)NCCCc1ccccc1	nt	nt	nt	-5	-0.6	nt	1.1	-2.8
O=C1C=C(c2ccc(Oc3ccccc3)cc2)C[C@@H](c2ccc(F)cc2)C1	nt	nt	nt	3	0.1	nt	0.3	-1.7
Cc1cccc(N(C(=O)c2snc(C(N)=O)c2N)C(C(=O)NCC2CCCO2)c2c[nH]c3ccccc23)c1 (stereo not drawn)	-6	4.1	?	3	0.9	5	-2.9	8.3
COc1ccc2c(c1)C(C)CC(C)(C)N2C(=O)CSc1ncn[nH]1 (stereo not drawn)	-5	-1.9	10%	-7	-0.1	-6	1.5	nt
CCC(C)NC(=O)C1CCN(S(=O)(=O)CC)CC1 (stereo not drawn)	-2	5.3	15%	3	0.2	-3	-3.8	4.9
O=C(NCCCCNC(=O)c1ccc(F)cc1)c1ccc(F)cc1	8	-5.8	nt	-3	-0.3	-5	4.4	2.6
CN(C)CCN[C@H]1CCC2C3CC=C4C[C@@H](O)CC[C@]4(C)C3CC[C@@]21C (stereo partly drawn)	nt	nt	-13%	-12	-0.7	nt	6.5	0.5
O=c1[nH]c(CSc2ccccn2)nc2c1cnn2-c1ccccc1	-5	2.3	-7%	-3	0.2	5	-5.5	nt
CCCc1nnc(NC(=O)CCC(=O)N2CCN(C3c4ccccc4-c4ccccc43)CC2)s1	11	-0.6	nt	-13	-0.1	13	0.5	-1.0
O=C(CSc1ncnc2c1oc1ccccc12)Nc1nc2ccccc2s1	8	4.3	9%	-17	0.3	-7	3.0	-51
CCC(=O)N1CCc2cc(Br)cc(S(=O)(=O)N3CCCCCC3)c21	-3	0.1	10%	0	0.6	16	1.9	nt
FC(F)(F)c1cccc(-c2ccc(-c3csnn3)o2)c1	-2	1.8	11%	-1	0.1	-1	1.8	nt
CCOc1cc(/C=N/NC(=O)c2cc(-c3cccc(OC)c3)nc3ccccc23)ccc1O	19	5.8	nt	99*	-0.4	26	-7.9	-2.2
COc1cccc(C2C3=C(CCCC3=O)NC3=C2C(=O)c2ccccc23)c1 (stereo not drawn)	35	3.3	-2%	3	0.3	-5	-3.6	nt
O=C(NC(=S)Nc1ccccc1N1CCOCC1)c1ccc(Br)cc1	nt	nt	2%	3	1.1	9	-8.7	1.4
O=C(Cc1cccc([N+](=O)[O-])c1)Nc1ccc(C(=O)N2CCOCC2)cc1	nt	nt	nt	-5	0.9	nt	-0.1	3.4
N#CC(C(=O)OC1CCCCC1)c1nc2ccccc2nc1N1CCCCC1 (stereo not drawn)	-8	17*	7%	nt	nt	67*	nt	nt
COc1ccc(C(CNC(=O)c2cccc(S(=O)(=O)N3CCOCC3)c2)N2CCOCC2)cc1 (stereo not drawn)	nt	nt	0%	3	1.5	nt	6.3	-5.0
O=C(CSc1ncnc2c1oc1ccccc12)Nc1cccc(F)c1	-22	-1.0	-340%	0	0.7	12	2.2	nt
CC(C)[C@H](NC(=O)c1ccccc1F)C(=O)Nc1ccc2c(c1)OCO2	nt	nt	-7%	-2	1.3	nt	1.8	1.0
COc1ccc(C(=O)N/C(=C\c2ccccc2)C(=O)NC(CC(C)C)C(=O)O)cc1 (stereo not drawn)	-12	?	-4%	2	0.6	0	6.1	-2.3
CCCCc1ccc(NC(=O)NCc2ccccn2)cc1	5	2.1	9%	-3	-0.9	-5	-0.2	1.3
CCSc1nnc(CNc2ccc(F)cc2)n1CC1CCCO1 (stereo not drawn)	0	2.6	1%	-2	0.6	-2	0.0	nt
CCCOC(=O)CN1C(=O)c2ccccc2C1=O	-3	5.3	-8%	0	0.0	-10	-6.2	nt
COc1ccc(C(=O)NNC(=S)NC2CCCCC2)cc1OC	-12	0.7	5%	nt	0.3	-4	1.5	nt
CCOc1ccc(/C=N/NC(=O)c2nnn(-c3nonc3N)c2COc2ccc(F)cc2)cc1	8	0.3	nt	3	0.3	-11	1.9	nt
CCOC(=O)C1=C(CSc2nc3c(cc2C#N)CN(C)CC3)OC(N)=C(C#N)C1c1ccc(F)cc1 (stereo not drawn)	-7	19*	15%&16%	-11	0.2	23	-0.5	nt
CCOc1ccc(CN2CCN(CCCc3ccccc3)C(CCO)C2)cc1 (stereo not drawn)	-14	1.7	nt	-4	0.2	32	-0.3	5.6
Cc1c(NC(=O)CSc2nnnn2-c2ccc(C(=O)O)cc2)c(=O)n(-c2ccccc2)n1C	-5	-4.3	13%	2	-0.8	-13	2.3	1.3
Cc1nc2c(Cl)cccc2c2c1CC(CBr)O2 (stereo not drawn)	-9	0.1	-5%	-2	-0.1	-1	-3.0	-2.8
COc1cc(C(=O)OCCNC(=O)c2ccccc2)cc(OC)c1OC	-1	-2.1	-3%	0	-0.2	-12	-7.1	-0.9
COc1ccc(S(=O)(=O)NCc2ccncc2)cc1NC(=O)c1ccccc1	5	4.9	5%	nt	0.6	2	-1.5	-2.0
Cn1cnc([N+](=O)[O-])c1Oc1ccc2ccccc2c1	-4	0.3	nt	-6	0.2	15	2.4	nt
CC(C)c1nnc(SCC(=O)NC2CCCCC2)n1C	-7	0.2	nt	0	0.3	3	8.9	1.1
Cc1ccc(NC2=C(Cl)C(=O)OC2NC(=O)c2ccccc2)cc1 (stereo not drawn)	18	-2.5	5%	-5	-0.3	-1	-4.3	nt
CCCn1c(SCC(N)=O)nc2c(c1=O)C1(CCCC1)Cc1ccccc1-2	-1	1.3	7%	-5	0.4	20	2.6	nt
Cc1csc(NC(=O)c2cc([N+](=O)[O-])cc([N+](=O)[O-])c2)n1	-10	?	12%	11	-0.1	46	-0.4	7.4
COC(=O)N/N=C(\C)c1cccs1	41	1.7	3%	-5	-0.4	-3	6.4	0.7
C[C@@H]1C[C@@H]2O[C@H]2/C=C\C=C\C(=O)Cc2c(Cl)c(O)cc(O)c2C(=O)O1	84*	-0.8	26%	-15	-0.3	26	1.4	-2.2
O=c1c(-c2ccccc2Cl)c[nH]n1-c1ccccc1	43	2.6	5%	nt	-1.9	-9	-3.8	2.2
Cc1ccc2nc(SCC(=O)NCCc3ccccc3)nc(=O)n2c1	4	1.1	2%	-5	-0.1	-6	-2.2	5.5
COc1ccc(-n2c(=S)[nH]c(=O)c3cccnc32)cc1	0	2.1	nt	1	0.9	-17	1.0	-0.7
